Screening data: PubChem, National Center for Advancing Translational Sciences (NCATS)
ELG1 repair inh = ELG1-dependent DNA repair inhibition | HEK293T ELG1-luciferase reporter, luminescence, 16 h; DNA damage induced by 5-fluorouridine | AID 504467 | actives 2.3% (n = 330,000) | Potency, µM (doses to about 46.1 µM), without a hit: at the highest dose activity change, negative = inhibition, hits mostly inhibitors; note: potency is the fitted concentration of half-maximal effect; % is set by controls: 0 for no effect and ±100 for the full control effect; nearly all actives have a fitted effect of over 55% in size
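HEK293T cells expressing luciferase-tagged ELG1 (2,000/well) received 5-Fluorouridine plus compound or DMSO for 16 hr at 37 °C. Luciferase was read by ONE-Glo luminescence after 30 min at room temperature.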
KCNH2 3.1 block = blocks the human KCNH2 3.1 channel isoform; U2OS KCNH2 3.1, thallium flux FluxOr; active compounds read low; activity change, % (tested at about 1.8 µM); actives 0.95% (n = 340,000);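 active = maximum activity change below -70%; inconclusive = maximum activity change from -70% to -50%; inactive = maximum activity change above -50%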;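 note: thallium influx rate constant from kinetic fluorescence after stimulation buffer; % is set by controls: 0 for no effect and ±100 for the full control effect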
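Normalized rate constant (relative to positive and negative DMSO controls) derived from a 2 min kinetic fluorescence read after stimulation; U2OS cells expressing the 3.1 isoform via virus at 1.77 x 10^8 /mL.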
MBNL1 CUG block = inhibitors of human MBNL1 binding to CUG repeat RNA; Q9NR56; actives 0.036% (n = 280,000); Potency, µM (top dose mostly 57.5 µM), without a hit: at the highest dose activity change, negative = inhibition, actives largely listed as inhibitors; TR-FRET MBNL1-His/biotin-(CUG)12 binding, 665/545 ratio; active = well fitted inhibition curve with a large enough effect in the signal ratio, with a control signal flat, not every such curve was filed as active; inconclusive = small, poorly fitted or top-dose-only effect, or effect the other way, or a change in a side signal; inactive = no such curve, though single readings can be large or run the other way; the % refers to the signal ratio; note: potency is the fitted concentration of half-maximal effect; % is set by controls: 0 for no effect and ±100 for the full control effect
Target sequence (Q9NR56 whole entry, looked up): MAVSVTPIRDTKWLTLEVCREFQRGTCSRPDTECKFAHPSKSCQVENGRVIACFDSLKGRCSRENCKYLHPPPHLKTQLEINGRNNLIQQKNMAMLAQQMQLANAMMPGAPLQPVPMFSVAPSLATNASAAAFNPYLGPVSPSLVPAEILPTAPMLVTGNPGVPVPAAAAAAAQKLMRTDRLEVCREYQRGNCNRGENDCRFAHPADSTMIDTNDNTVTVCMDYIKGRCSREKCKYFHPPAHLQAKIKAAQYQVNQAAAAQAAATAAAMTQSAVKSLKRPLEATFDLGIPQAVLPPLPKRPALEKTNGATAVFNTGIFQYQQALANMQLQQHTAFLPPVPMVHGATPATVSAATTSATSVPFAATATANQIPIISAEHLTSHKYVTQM
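Ratiometric TR-FRET (665 over 545 nm, excitation 340 nm) tracks disruption of MBNL1-His/biotin-(CUG)12 complex after 60 min at room temperature, with compounds at 92 nM to 58 uM final.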
FLuc modulator = inhibits or activates purified firefly luciferase, miR-21 counter-screen; purified FLuc, Km substrates, luminescence inhibition; Potency, µM (doses to about 57.5 µM), for the others: at the highest dose activity change, negative = inhibition, usual class: inhibitors; actives 6.9% (n = 360,000); AID 588342;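 note: potency is the fitted concentration of half-maximal effect; plate controls were vehicle for no effect and reference inhibitor for full effect; nearly all actives have a fitted effect of over 55% in size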
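Purified P. pyralis luciferase, 10 nM final, with Km-level 10 uM D-luciferin and 10 uM ATP in 50 mM Tris acetate pH 7.5, 10 mM Mg acetate, 0.01% Tween-20, 0.05% BSA; 6-point qHTS titration about 60 µM downward; luminescence read.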
Mito fusion act = mitochondrial division inhibition or fusion activation. S. cerevisiae fusion-defective mutant growth rescue, CellTiterGlo 48 h. Potency, µM (doses to about 46.1 µM), for the others: top-dose growth rescue (activation), actives largely listed as activators. actives 0.23% (n = 320,000). AID 485298;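 note: potency is the fitted concentration of half-maximal effect; % of control where 0% means no effect; nearly all actives have a fitted effect of over 45% in size; temperature-sensitive fusion mutants such as fzo1-1 at 37 °C on non-fermentable ethanol glycerol medium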
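Read-out: ATP-based luminescence (CellTiterGlo, 10 min ambient) reporting growth of fusion-defective ts yeast after 48 hours at 37C on glycerol/ethanol YPEG medium in the presence of compound.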
NPC1 promoter act = activators of NPC1 promoter; Huh7 NPC1 promoter luciferase reporter, 24 h; Potency, µM (doses to about 9.22 µM), without a hit: top-dose activation, hits mostly activators; actives 2.4% (n = 320,000);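 note: potency is the fitted concentration of half-maximal effect; % of control where 0% means no effect; nearly all actives have a fitted effect of over 60% in size; reporter is driven by a mutant NPC1 promoter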
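Quantitative HTS used a cell-based reporter: Huh7 cells stably bearing the NPC1 promoter upstream of luciferase were treated with compounds for 24 h, and promoter activation was read as luminescence.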
Gal4-VP16 FLuc = Gal4-VP16 reporter inhibition counter-screen | Drosophila S2 Gal4-VP16 UAS-luciferase, luminescence, 20 h | Potency, µM (highest dose often 53.6 µM), for the others: at the top dose activity, negative = inhibition, most hits filed as inhibitors | actives 3.5% (n = 310,000) | AID 2546;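 note: Gal4-VP16 expression switched on by copper sulfate through the metallothionein promoter; potency is the fitted concentration of half-maximal effect; % is set by controls: 0 for no effect and ±100 for the full control effect; nearly all actives have a fitted effect of over 50% in size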
RORgamma inh = inhibitors of mouse ROR gamma transcriptional activity; P51450; Drosophila S2 Gal4-RORgamma UAS-luciferase reporter, 20 h; Potency, µM (series often up to 53.6 µM), for the others: at the top dose activity change, negative = inhibition, usual class: inhibitors; actives 5.4% (n = 310,000); note: potency is the fitted concentration of half-maximal effect; % is set by controls: 0 for no effect and ±100 for the full control effect; nearly all actives have a fitted effect of over 60% in size
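Stable Schneider cell line, Gal4 DNA-binding domain fused to ROR gamma, UAS-luciferase. Cmpd 1 hr RT → CuSO4 700 uM final → 20 hr RT → luciferase reagent 10 min → luminescence.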
Rab9 prom act = activators of Rab9 promoter; actives 2.8% (n = 320,000); Potency, µM (doses to about 9.22 µM), for the others: at the top dose activation, negative = inhibition, usual class: activators; Huh7 Rab9 promoter-luciferase reporter, luminescence, 24 h; AID 485297; note: potency is the fitted concentration of half-maximal effect; % of control where 0% means no effect; nearly all actives have a fitted effect of over 60% in size
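Promoter activation is measured as luciferase luminescence in Huh7 cells stably transfected with a Rab9 promoter–luciferase construct, following 24 h compound exposure at 37 °C and 10 min reagent incubation at ambient temperature.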
Menin MLL FP TR = menin-MLL binding inhibition, Texas Red mutant peptide; Menin + Texas Red MLL mutant peptide, fluorescence polarization; O00255; actives 0.23% (n = 270,000); Potency, µM (series often up to 61.6 µM), for inactives: at the top dose FP activity change, negative = inhibition, actives largely listed as inhibitors; active = well fitted inhibition curve with a large enough effect in the polarisation, with a control signal flat, not every such curve was filed as active; inconclusive = small, poorly fitted or top-dose-only effect, or effect the other way, or a change in a side signal; inactive = no such curve, though single readings can be large or run the other way; the % refers to the polarisation; note: potency is the fitted concentration of half-maximal effect; % of control where 0% means no effect; many of its hits are not listed in these tables
Target sequence (O00255 whole entry, looked up): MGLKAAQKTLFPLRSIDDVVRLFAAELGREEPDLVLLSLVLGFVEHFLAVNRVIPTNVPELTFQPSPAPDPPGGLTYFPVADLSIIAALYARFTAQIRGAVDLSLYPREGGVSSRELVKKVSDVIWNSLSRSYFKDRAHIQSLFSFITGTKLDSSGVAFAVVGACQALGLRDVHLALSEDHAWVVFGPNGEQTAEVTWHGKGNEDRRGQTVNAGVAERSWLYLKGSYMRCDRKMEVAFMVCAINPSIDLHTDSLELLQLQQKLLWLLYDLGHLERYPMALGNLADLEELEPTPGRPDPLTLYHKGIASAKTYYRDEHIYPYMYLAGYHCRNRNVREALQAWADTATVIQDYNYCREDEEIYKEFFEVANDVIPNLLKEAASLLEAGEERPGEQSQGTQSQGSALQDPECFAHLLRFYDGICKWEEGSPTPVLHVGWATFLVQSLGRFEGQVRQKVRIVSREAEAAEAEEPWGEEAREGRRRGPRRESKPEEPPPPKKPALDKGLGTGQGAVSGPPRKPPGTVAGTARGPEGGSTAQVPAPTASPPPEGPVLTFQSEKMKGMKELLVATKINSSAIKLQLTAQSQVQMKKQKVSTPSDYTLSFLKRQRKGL
* = called active by the depositor; ? = inconclusive; · = no result given; & = joins results of further samples; [ ] = remark or other dose. Unless noted, calls come from the whole dose curve; as a rule, active = well fitted curve in the direction sought with a large enough effect; inconclusive = small, poorly fitted or top-dose-only effect, or another doubt; inactive = no such curve, though single readings can be large; an effect the other way counts as inactive or inconclusive. Only part of the results is shown; count on the stated rates, not on these rows.

SMILES	ELG1 repair inh	KCNH2 3.1 block	MBNL1 CUG block	FLuc modulator	Mito fusion act	NPC1 promoter act	Gal4-VP16 FLuc	RORgamma inh	Rab9 prom act	Menin MLL FP TR
CCOc1ccc(NC(=O)C2CCN(S(=O)(=O)CC)CC2)cc1	-13%	-3	-9%	4%	0%	1%	-8%	-11%	0%	2%
CC(=O)NC1C(OCc2ccccc2)OC2COC(C)(C)OC2C1O (stereo unspecified)	7%	4	2%	-1%	-2%	-7%	1%	-2%	-5%	-1%
O=C(NC1CCCCC1)C(c1cc2c(cc1[N+](=O)[O-])OCO2)N1CCCCC1 (stereo unspecified)	20%	·	-4%[11.5 µM]	-12%	?	-1%	-3%	-3%	-1%	-7%
Oc1ccc2ccccc2c1N=Nc1nccs1	3.7µM*	19	?	19µM*	?	-1%	3.5µM*	1.3µM*	-35%[inhibitor]	·
Nc1nc(Nc2ccc(Cl)cc2)nc(NCCO)c1[N+](=O)[O-]	3%	9	?	-18%	1%	?	-4%	?	-2%	·
CCN1C(=O)C(CC(=O)Nc2ccc(OC)cc2)N(Cc2ccco2)C1=S (stereo unspecified)	-2%	-1	-20%	-8%	-4%	-1%	?	2%	3%	9%
COc1ccc([N+](=O)[O-])cc1NS(=O)(=O)c1cccc(C(=O)O)c1	0%	0	?	-1%	1%	-6%	-4%	7%	-7%	·
COCCn1c(SCC(=O)Nc2ccccc2C)nc2c(oc3ccccc32)c1=O	-14%	7	2%	2%	-7%	-2%	6%	6%	-8%	-2%
O=C(CSc1nnc(CNC(=O)C23CC4CC(CC(C4)C2)C3)n1-c1ccc(F)cc1)Nc1ccc(F)cc1	?	-8	3%	3%	-2%	-3%	3%	28%	-2%	21%
Cc1ccc(-c2nnc(Nc3ccc(C(=O)N(C)C)cc3)c3ccccc23)cc1S(=O)(=O)NC(C)(C)CO	8%	-9	?	21µM*	0%	5%	-30%	6%	15%	·
CC1=NN(C(C#N)c2ccc(F)cc2)C(c2ccccc2)C1 (stereo unspecified)	7%	10	-15%	-1%	0%	-2%	0%	?	13%	-12%
CCOc1ccc(OCCSc2nnnn2C2CCCCC2)cc1	5%	-12	0%	-7%	-5%	9%	6%	45%	-7%	2%
COC(=O)C(NC(=O)c1ccccc1C)(Nc1ncc(S(=O)(=O)c2ccc([N+](=O)[O-])cc2)s1)C(F)(F)F (stereo unspecified)	?	-1	?	10%	-4%	-2%	0%	24%	1%	0%
CC1=CC(C)(C)Nc2ccc(OC(=O)CN3C(=O)c4ccccc4C3=O)cc21	13%	0	-1%	-9%	11%	-3%	7.1µM*	4.5µM*	-6%	?
C=CCN1C(=O)C(Cc2ccc(OC)cc2)S/C1=N\N=C\c1cccs1 (stereo unspecified)	17%	-12	-6%	-3%	0%	3%	10%	2%	0%	5%
O=C(/C=C/c1ccco1)OCn1nnc2ccccc2c1=O	16%	0	17%	-9%	-2%	9%	31%	-6%	28%	19%
CN1CCN(C(=O)c2ccc(-n3cccn3)nc2)CC1	8%	7	-5%	-1%	0%	10%	7%	2%	-3%	14%
CCN(CC)CCCC(C)n1c(-c2ccccc2)nc2c(NCCO)nc(C)nc21 (stereo unspecified)	·	·	·	·	·	·	-7%	-17%	·	4%
O=C(NCc1cccnc1)c1cc(C(=O)C2CC2)c[nH]1	2%	1	-1%	-1%	-2%	-4%	1%	1%	-9%	-21%
C/C(=N\OC(=O)c1ccc(OC(C)C)cc1)c1ccc(C)c(C)c1	13%	13	1%	13µM*	21%	1%	4%	-13%	13%	0%
COC(=O)C(CC(C)C)N1CCC(=O)c2ccccc2S1(=O)=O (stereo unspecified)	7%	21	11%	3%	0%	-8%	11%&-5%	3%&14%	13%	10%
COc1ccc(/C=N/NC(=O)c2ccncc2)cc1COc1ccc(NC(C)=O)cc1	-15%	-19	·	-2%	1%	0%	22%	8%	2%	·
Cc1ccccc1-c1noc(C23CC4CC(CC(C4)C2)C3)n1	?	·	-5%	-16%	2%	6%	16%	30%	7%	-11%
COc1cc(NC(=O)COC(=O)C2CC2)c(C)cc1[N+](=O)[O-]	0%	22	17%	-1%	1%	-5%	2%	1%	0%	6%
CC(C)(C)c1nnc(NC(=O)Cc2ccccc2[N+](=O)[O-])s1	?	-20	·	-2%	-3%	-2%	?	?	1%	-11%
CC(=O)Nc1ccc2c(c1)nc(CN1CCCC1)n2C	22%	-2	-6%	1%	-1%	17%	1%	9%	-3%	2%
COc1ccc(N2CCN(c3nc4ccc(C)cn4c(=O)c3C=O)CC2)cc1	-21%	-23	?	0%	9%	0%	4%	17%	13%	?
COc1ccc(-n2c(=O)n(Cc3ccccc3)c(=O)c3[nH]cnc32)cc1	23%	1	·	-1%	1%	0%	0%	12%	2%	·
O=C(CSc1n[nH]c(=O)n1C1CC1)c1ccc(F)cc1	?	-16	-16%	?	0%	2%	17%	1%	9%	·
O=C(O)CSc1nnc(CNc2ccc(F)cc2)n1-c1ccccc1	0%	-6	-7%	1%	-1%	-7%	-3%	1%	1%	·
Cc1cccc(C)c1NC(=S)N(CCN(C)C)C(C)c1cccnc1 (stereo unspecified)	20%	-8	-12%	-4%	4%	7%	-6%[10 µM]	4%	-5%	0%
CCOC(=O)C1=C(CS(=O)(=O)c2ccccc2)NC(=O)NC1c1ccc(O)c(OC)c1 (stereo unspecified)	-3%	3	-15%	-1%	-1%	1%	6%	2%	-6%	·
CC(C)N(C(=O)C(=O)c1cccn1-c1ccccc1C#N)C(C)C	2%	-2	-2%	9%	2%	2%	-1%	-23%	0%	1%
O=C(COC(=O)/C=C/c1ccccc1Cl)NCc1ccco1	-4%	-13	·	?	5%	0%	-6%	-23%	11%	-5%
COC(=O)CNC(=O)C1CCCN1C(=O)CNC(=O)OC(C)(C)C (stereo unspecified)	?	0	0%	-1%	0%	6%	?	-4%	8%	-7%
COc1cc(OC)nc(NC(C)=O)n1	7%	1	-7%	0%	-1%	-4%	-11%	-18%	6%	17%
O=C(O)c1ccccc1C(=O)NCc1ccc2c(c1)OCO2	24%	8	-4%	2%	6%	-2%	-12%	0%	-12%	-4%
CCc1c(C)nc2ncnn2c1N1CCCC(C(=O)NCc2cccs2)C1 (stereo unspecified)	-15%	-7	-3%	-4%	-7%	-1%	?	-23%	-11%	-2%
CCSc1ncc(Cl)c(C(=O)Nc2ccccc2)n1	-4%	7	3%	1%	-18%	-1%	-13%	27%	2%	4%
CCc1cc(C(=O)c2ccc(OC)cc2)c(NC(=O)CCC(=O)O)s1	7%	14	·	4%	2%	-7%	5%	?	-2%	·
Cc1nn(C2CCS(=O)(=O)C2)c(Cl)c1/C=C/C(=O)OCC(=O)c1cc(C)n(-c2ccc(F)cc2)c1C (stereo unspecified)	13µM*	8	1%	-7%	-4%	-15%	2%	44%	-23%	4%
COc1cccc(C2C=C(c3ccc(OC)cc3OC)Nc3nnnn32)c1 (stereo unspecified)	18µM*	11	0%	?	0%	-9%	0%	-13%	-18%	1%
COc1ccccc1/C=N/n1c(N)c(C(=O)NC2CCCCC2)c2nc3ccccc3nc21	0%	3	-3%	1%	-1%	3%	-3%	5%	-3%	0%
CCN(CC)CCOC(=O)c1ccc(NC(=O)CNC(=O)c2ccccc2)cc1	12%	-19	-5%	0%	-5%	3%	-3%	-23%	0%	11%
CN(C)S(=O)(=O)c1cccc(NC(=O)CNCc2ccccn2)c1	39%	-10	-14%	-2%	-1%	9%	-21%	-3%	2%	·
COc1ccc(S(=O)(=O)N(C)c2c(C)n(C)n(-c3ccccc3)c2=O)cc1OC	5%	-7	-10%	8%	9%	-1%	-15%	14%	0%	1%
COc1ccc(S(=O)(=O)N2CCOC2CNC(=O)C(=O)NCC(C)C)cc1OC (stereo unspecified)	-18%	5	0%	-12%	-1%	-1%	-9%	36%	-5%	·
Nc1nc2n(n1)C(c1ccco1)CC(c1ccc(Cl)c(Cl)c1)N2 (stereo unspecified)	-8%	8	-4%	-9%	-3%	2%	-11%	-2%	6%	-1%
O=C(COC(=O)c1ccc(F)c(S(=O)(=O)N2CCOCC2)c1)NCc1ccco1	-2%	·	1%	6%	0%	-4%	-4%	-2%	-7%	·
Cc1nn(Cc2ccc(F)cc2)c2sc(C(=O)Nc3ccccc3N3CCOCC3)cc12	?	-5	·	-1%	-6%	0%	-12%	-3%	3%	-12%
O=C(O)c1cccc(Nc2cc(Cl)c3nonc3c2[N+](=O)[O-])c1	-1%	-14	?	-17%	-3%	-7%	5%	?	0%	?
